# Bead autofluor: counter-screen for toxin protease inhibitors: compound fluorescence; compound autofluorescence counterscreen, microsphere flow cytometry; hits give high values; fluorescence intensity (no concentration beside the values); 3.1% of 360,000 active;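 active = at least 3 SD above the mean of all compounds, about 16000 in these data; inconclusive = too few beads counted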;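 note: 100 nL of 1 mM stock went into each well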
# PrP 5UTR inh: inhibition of PrP 5' UTR reporter expression; 0.35% of 340,000 active; inhibition, % (no concentration beside the values); AID 488862, 2010; cell-based PrP 5' UTR mRNA reporter, plate reader;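 active = every replicate at 50% or more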;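 note: 0 = median of the neutral control wells; tested in H4 reporter cells; numbers are from one replicate; inactives centre near -14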
# ugtP null kill: growth inhibition of ugtP-null S. aureus, primary screen, RN4220 ugtP deletion, OD600; 16 h; some inactives read as strong as hits; AID 1259309, 2017; 0.54% of 330,000 active; growth inhibition, % (concentration not given with the values);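 active = z-score under -3 and OD600 up to 0.15 on both plates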;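 note: plate controls were untreated wells for no effect and antibiotic for full effect; wells of about 80 µL received 100 nL stock; the first replicate is given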
# BJeLR lethal: MLPCN primary cell-based screen for lethality selective to Ras in HRASV12 cells. BJeLR (HRASV12) viability, CellTiter-Glo ATP luminescence, 48 h; reference of the scale not given here. inhibition, % (no concentration beside the values). 0.17% of 300,000 active. AID 1554, 2009;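 active = replicate mean above 50%; inconclusive = above 50% but judged a plate artefact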;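 note: 50 nL library stock added to about 25 µL; numbers are from one replicate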
# Mtb hypoxia rep: PubChem AID 1159583; M. tuberculosis hypoxia-regulated fluorescent reporter, fluorescence; fluorescence inhibition, % (no concentration beside the values); 0.1% of 300,000 active;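 active = 35 to 45% if threefold the growth effect, above 45% if 1.5-fold the growth effect; inactive = the rest, general growth blockers included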;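 note: wells of about 50 µL received 100 nL stock; 0% = vehicle wells and 100% = reference inhibitor wells; whole bacteria with a GFP reporter of the hypoxia response; strong numbers were not always called active; many hits fall short of the cut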
# RN4220 kill: growth inhibition of S. aureus RN4220, primary screen, OD600; 16 h; inhibition, % (test concentration not listed); 0.33% of 330,000 active; AID 1259311, 2017;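 active = z-score of -3 or lower and OD600 up to 0.18 on both plates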;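 note: plate controls were untreated cells for no effect and reference antibiotic for full effect; stock transfer was 100 nL into about 80 µL; one replicate is shown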
# Mtb hypoxia rep growth: further read-out of Mtb hypoxia rep, marked with its call; growth inhibition, %; measured here: M. tuberculosis growth (absorbance);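 0% = vehicle and 100% = reference antibiotic; read after six days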
# Starred values were filed as active, the others as inactive; u = inconclusive; x = not tested or not shown; & = joins results of further samples.
SMILES,Bead autofluor,PrP 5UTR inh,ugtP null kill,BJeLR lethal,Mtb hypoxia rep,Mtb hypoxia rep growth,RN4220 kill
CCN(Cc1ccccc1)C(=O)c1ccccc1C,10854,-1,5,-5,11,11,2.7
COc1ccc(C2/C(=C(/O)c3ccc(C)cc3)C(=O)C(=O)N2c2ccccn2)cc1OC (configuration not stated),4892,-29,12,2,-1,4,4.3
CC(C)(C)c1ccc(C(=O)N/N=C/c2ccc(OCCCF)cc2)cc1,3355,-13,x,-1,x,x,x
O=C(c1ccc(Br)cc1)c1cc2ccc(O)cc2oc1=O,3610,-22,13,-5,2,14,7.3
COc1cc(CCC(=O)NNC(=O)c2ccc(C)cc2)cc(OC)c1OC,3307,-4,5,-6,3,-5,12
CCCC(=O)Nc1ccc(Cl)c(NC(=S)NC(=O)c2cc3ccccc3o2)c1,7620,-12,4,9,4,-4,0.2
Cc1ccc(-n2c(-c3cnccn3)n[nH]c2=S)cc1,4540,17,8,6,1,11,5.4
CCCCCNC(=O)C1CCC(Cn2c(=S)[nH]c3ccccc3c2=O)CC1 (configuration not stated),4118,-11,5,-3,4,0,-4.1
CN(N)c1nc(-c2ccccc2)cc(-c2ccccc2)n1,2982,2,11,3,14,8,5.3
Cc1ccsc1C(=O)NCC(C)(C)N1CCOCC1,2914,-7,0,x,-10,-4,3.5
COC(=O)c1c(C)[nH]c(C(=O)/C=C/c2ccc(Cl)cc2)c1C,2247,-57,-12,8,5,2,8.5
C/C(=C\c1ccccc1)C(=O)c1c(C)cc(C)[nH]c1=O,3034,-6,3,1,3,8,2.8
CSc1nnc2c(n1)OC(c1cn(C)c3ccccc13)N(C(C)=O)c1ccccc1-2 (configuration not stated),x,x,6,-6,x,x,5.2
Cc1ccn(CC(=O)O)c(=O)c1,22082*,-22,0,-3,-5,8,2.1
Cc1cc(OCCCC(=O)NCCN2C(=O)S/C(=C\c3cccnc3)C2=O)ccc1Cl,2009,-8,0,1,12,1,4.0
Cc1ccccc1CNC(=O)CN(c1cccc([N+](=O)[O-])c1)S(C)(=O)=O,4057,-26,-2,0,15,5,2.5
CCN(CC)CC(=O)NCC1(c2ccccc2)CCCC1,3172,-11,-1,3,6,4,-0.3
CCOC(=O)N1CCc2c(sc(NC(=O)CN3CCN(C)CC3)c2C(=O)Nc2ccccc2)C1,3364,-21,14,-5,13,2,0.9
Cc1ccc(CNC(=O)CN(c2ccc(C(C)C)cc2)S(=O)(=O)c2c(C)noc2C)cc1,4684,-20,-6,-4,6,1,1.6
Nc1nc2ccccc2cc1S(=O)(=O)c1ccccc1,4174,-13,x,-2,x,x,x
COc1cc(OC)cc(C(=O)Nc2cc(-c3cn4cccnc4n3)ccc2C)c1,4155,-24,5,-1,-5,-20,-0.7
Cc1cccc(Nc2nn3c(=O)c4ccccc4nc3s2)c1,7916,-60,-8,-10,7,3,-0.7
Cn1c2ccccc2c(=O)c2ccc(-c3ccc4c(c3)OCO4)cc21,3837,-60,-3,-3,0,13,22
CCC(=O)N1CCc2cc(S(=O)(=O)CCC(=O)NCCc3ccc(S(N)(=O)=O)cc3)ccc21,5973,-15,5,-5,1,-8,4.8
CCOc1ccc(S(=O)(=O)NCCC(=O)N(C)CC(=O)Nc2ccc(OC)cc2)cc1,6579,-7,2,-6,3,4,1.2
FC(F)Oc1ccccc1NC(=S)NCCc1ccccc1,4110,-25,4,-3,13,-6,1.4
COc1ccc(Cl)cc1-c1nc(SCC(=O)N(C)CCC#N)n[nH]1,4434,-33,3,9,1,10,8.7
COc1cc(/C=N/NC(N)=S)ccc1OCc1ccc(C)cc1,1990,-29,x,-5,x,x,x
O=C(c1ccc(OC2CCN(C/C=C/c3ccccc3)CC2)cc1)N1CCCCC1,5875,-7,11,-5,11,2,2.5
O=C(c1cc2cc(F)ccc2[nH]1)N1CCN(c2cccc(Cl)c2)CC1,3748,-24,-19,-10,-6,14,2.0
O=C(c1ccccc1)N1N=C(c2ccccc2O)CC1c1ccc(Br)cc1 (configuration not stated),3123,-29,-14,4,-11,9,-2.8
CC1=NN(c2ccccc2)C(=O)C1C(=O)C(=O)Nc1ccc(F)cc1 (configuration not stated),3457,-19,18,0,-3,-2,39
O=C(Nc1nc(-c2ccccc2)cs1)c1cccc([N+](=O)[O-])c1,20697*,-29,-16,5,-15,-5,-5.2
O=C(NCC1CCCO1)/C(=C\c1ccc(Cl)cc1)NC(=O)c1ccccc1 (configuration not stated),2819,-20,x,1,x,x,x
Cn1c(O)c(/C=C2\C=Nc3ccc(Br)cc32)c(=O)n(C)c1=O,3321,-12,x,4,x,x,x
Cc1ccc(Cn2c(SCCN3CCCCC3)nc3c2c(=O)[nH]c(=O)n3C)cc1,6926,9,-1,-2,5,7,3.2
Cc1cccc(-n2c(N)c(C(=O)N3CCN(C)CC3)sc2=S)c1,2920,-30,-3,-1,20,-14,-16
CN(CC(=O)Nc1ccc(Cl)cc1)C(=O)CCc1ccccc1,4207,-5,4,-2,3,1,2.9
CCCC(=O)N1CC2(C)CN(C(=O)CCC)CC(CCC)(C1)C2=O,2779,-8,-6,3,11,2,-16
CC[C@@H]1C=C(C(=O)O)[C@H](c2ccc3c(c2)OCO3)N1S(=O)(=O)c1ccc(C)cc1,3799,-13,5,x,-2,1,3.2
Cc1ccnc(NC(=O)COC(=O)C2COc3ccccc3O2)n1 (configuration not stated),9071,-26,7,x,16,6,1.9
Cc1c(CN2CC[C@@H](N3CCN(c4ccccn4)CC3)[C@H](O)C2)[nH]c2ccc(F)cc12,x,-17,2,-4,20,1,7.2
O=C(NCC1CCCN1S(=O)(=O)c1cccs1)c1ccccc1F (configuration not stated),u,-4,13,4,10,8,2.1
CCc1ccc(NC(=O)Nc2cccc(OC)c2)cc1,2018,-119,1,3,1,5,-3.2
O=C(NCc1ccccc1)c1ccc(=O)[nH]n1,4998,-7,10,3,x,x,-1.9
CC(=O)c1c(C)nc2ccc(Cl)cn12,2267,-18,15,0,x,x,8.2
CCC(=O)N1CCc2cc(S(=O)(=O)CCC(=O)Nc3ccc(F)c(F)c3)ccc21,4608,-2,4,-2,x,x,0.9
CCC(c1nc2ccccc2c(=O)n1CCCn1ccnc1)N1C(=O)c2ccccc2C1=O (configuration not stated),8911,-20,3,4,6,6,-2.8
COc1cccc(CN2CCNC(=O)C2CC(=O)N(C)CCC2CCOCC2)c1OC (configuration not stated),u,-16,0,12,-10,7,1.3
CCC(C)NC(=O)CSc1nc(-c2cccs2)cc(C(F)(F)F)n1 (configuration not stated),9905,-21,3,-12,12,9,-0.8
CCOC(=O)C(O)(c1ccc(N=c2ccccn2C)cc1)C(F)(F)F (configuration not stated),4534,-18,-2,5,-2,4,2.2
O=C(NCc1ccccc1)C1=CC(c2ccccc2)CC(OCc2ccc(CO)cc2)O1 (configuration not stated),x,x,2&2,x,0&4,-1&4,7.5&3.3
Cc1ccc(S(=O)(=O)c2cc3cc(Br)ccc3oc2=O)cc1,6785,0,-2,-1,-2,9,-5.1
O=c1c2ccccc2c(C=NCc2ccccn2)c(O)n1-c1ccccc1Cl,4833,-3,1,0,10,3,0.6
O=C1CC(Cc2ccc(Cl)cc2)C(=O)N1c1ccncc1 (configuration not stated),2622,-23,0,2,16,5,-6.9
O=C(CCc1ccccc1)Nc1cc(NC(=O)CCc2ccccc2)cc(C(=O)O)c1,3150,-17,-11,0,-5,8,-3.5
O=C1CC(SC(=NCc2ccc3c(c2)OCO3)Nc2ccccc2)C(=O)N1 (configuration not stated),2494,73*,0,-2,5,13,-0.1
Cc1cc(C)cc(NC(=O)C2CCN(C(=O)c3cccs3)CC2)c1,5075,-7,13,1,8,8,3.9
C=C(C)CSc1nnc(-c2ccc(C)cc2)n1N,9224,-40,-2,5,11,9,2.9
CCCn1c(N)c(C(=O)CSc2nnnn2-c2ccc(O)cc2)c(=O)n(C)c1=O,2524,-10,-6,-5,3,4,-3.3
# Continued:
SMILES,Bead autofluor,PrP 5UTR inh,ugtP null kill,BJeLR lethal,Mtb hypoxia rep,Mtb hypoxia rep growth,RN4220 kill
COc1ccccc1CNC(=S)Nc1ccc(S(N)(=O)=O)cc1,3483,-23,3,4,-4,4,0.0
CS(=O)(=O)N1CCC(Oc2ccccc2C(=O)NC2CCCCCC2)CC1,4250,2,15,3,5,8,8.6
COc1cc(/C=N/Nc2ccc(Cl)c(C(=O)O)c2)ccc1OC(=O)c1ccc(F)cc1,5194,-22,x,-7,x,x,x
Cc1nc(N2CCC(C)CC2)c2c(C)c(C(=O)Nc3ccc4c(c3)OCCO4)sc2n1,x,-15,-9,-7,8,1,5.1
COc1ccc(CC(C(=O)Nc2cccc(F)c2)c2nn[nH]n2)c(OC)c1 (configuration not stated),5086,-33,2,2,-2,8,6.1
Nn1c(-c2ccccc2Cl)nnc1-c1ccccc1Cl,2794,-39,8,x,x,x,0.3
Fc1ccc(-c2cc3nc(-c4ccccc4)cc(N4CCN(CCN5CCOCC5)CC4)n3n2)cc1,11388,-8,6,3,6,7,6.1
COc1ccc(C=NNC(=O)C2c3ccccc3Oc3ccccc32)c(OC)c1,x,x,-2,x,-11,6,3.9
CN(CC(=O)Nc1ccc(F)c(F)c1F)C(=O)C1CCCO1 (configuration not stated),x,-3,8,-5,-1,-2,1.6
CCN1CCN(C(=O)C(=O)c2c(C)[nH]c3ccccc23)CC1,4343,-25,5,-2,-6,5,2.2
CCN1CCN(C(=O)c2cc3cc([N+](=O)[O-])ccc3oc2=O)CC1,x,15,3,6,1,9,4.1
Cc1cc(C=NNC(N)=S)c(C)n1-c1cccc(Cl)c1,x,x,-5,x,x,x,13
COc1ccc(OC)c(CCNC(=O)c2ccc(CS(=O)(=O)c3ccc(Br)cc3)o2)c1,3981,-18,5,0,9,8,1.0
COc1cccc(C2c3c(oc4ccccc4c3=O)C(=O)N2CCCN(C)C)c1OC (configuration not stated),3240,5,x,-2,x,x,x
O=C(CCNS(=O)(=O)c1ccc2c(c1)CCC(=O)N2)NCc1cccnc1,u,-22,7,-9,17,19,4.5
Cn1c(Cn2c(=O)sc3ccccc32)nnc1SCC(=O)Nc1ccc2c(c1)OCO2,5894,2,-5,0,x,x,1.6
CCN(CC)S(=O)(=O)c1cccc(C(=O)Nc2ccc(C#N)cc2)c1,16843*,-1,15,5,3,4,11
COc1ccc(OC(=O)c2cc3cc(Cl)ccc3oc2=O)cc1,3667,-17,-2,-4,-5,-6,2.0
CN(C)c1ccc(C=C(C#N)C#N)cc1,2026,-17,2,-4,6,10,4.5
Cc1ccc(C(=O)Cn2c(N3CCOCC3)nc3c2c(=O)n(C)c(=O)n3C)cc1,9488,-5,3,-14,1,6,3.6
Cc1nn(Cc2ccccc2)c(C)c1C=C1C(=O)NC(=S)NC1=O,2306,-16,-1,7,3,-1,-2.0
Cc1cc(-c2nc3ccccc3o2)c2ccccc2n1,u,1,22,3,16,-1,17
CCOC(=O)C1=C(C)C2C3C(=O)N(c4ccccc4C)C(=O)C3C1(C)C1C(=O)N(c3ccccc3C)C(=O)C21 (configuration not stated),2516,5,-2,16,-2,1,0.4
O=C(COC(=O)/C=C/c1ccc(C(F)(F)F)cc1)NC1CCCC1,x,-16,4,-6,-11,-9,4.0
O=C(CSc1nc2ccccc2o1)N/N=C/c1ccccc1C(=O)O,4017,-27,x,-3,x,x,x
c1ccc(CSc2nnc(-c3ccccc3)c(-c3ccccc3)n2)cc1,3663,-16,76,1,7,9,-1.0
CC(=O)C1=NOC(CNC(=O)c2c(-c3ccccc3Cl)noc2C)C1 (configuration not stated),5136,-22,-1,2,x,x,-3.8

# By substructure, the compounds so far with a COOH group.
SMILES,Bead autofluor,PrP 5UTR inh,ugtP null kill,BJeLR lethal,Mtb hypoxia rep,Mtb hypoxia rep growth,RN4220 kill
Cc1ccn(CC(=O)O)c(=O)c1,22082*,-22,0,-3,-5,8,2.1
CC[C@@H]1C=C(C(=O)O)[C@H](c2ccc3c(c2)OCO3)N1S(=O)(=O)c1ccc(C)cc1,3799,-13,5,x,-2,1,3.2
O=C(CCc1ccccc1)Nc1cc(NC(=O)CCc2ccccc2)cc(C(=O)O)c1,3150,-17,-11,0,-5,8,-3.5
COc1cc(/C=N/Nc2ccc(Cl)c(C(=O)O)c2)ccc1OC(=O)c1ccc(F)cc1,5194,-22,x,-7,x,x,x
O=C(CSc1nc2ccccc2o1)N/N=C/c1ccccc1C(=O)O,4017,-27,x,-3,x,x,x

# Source: PubChem
